Screening data (PubChem BioAssay)
GLA inh pH 4.5: alpha-galactosidase A (human) inhibition, pH 4.5 | activity change, negative = inhibition, % at 105 µM | 230,000 tested, under 10 active | purified enzyme, 4-MU-alpha-Gal fluorescence, pH 4.5; inconclusive = small, poorly fitted or top-dose-only inhibition, or a rising curve; inactive = flat fitted curve, though single readings scatter; no compound was filed as active;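 further: 0% = full activity with enzyme and -100% = basal without enzyme; dose as in the result columns while the protocol names 77 µM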
Rango-impB inh: prevents formation of the Rango-importin beta complex; Rango CFP/YFP FRET sensor + importin beta, 45 min; Q14974; AID 540263; Potency, µM (doses to about 92.2 µM), without a hit: at the top dose inhibition of complex formation; hit rate 0.031% among 340,000; active = rising FRET ratio curve, often small or poorly fitted; inconclusive = mostly compound fluorescence or quenching in the first reads; inactive = flat curves in all reads;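 further: potency means the concentration at half of the fitted maximal effect; 0% = DMSO wells and 100% = buffer wells lacking importin beta; nearly all actives have a fitted effect of over 15% in size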
Target sequence (Q14974 whole entry, looked up): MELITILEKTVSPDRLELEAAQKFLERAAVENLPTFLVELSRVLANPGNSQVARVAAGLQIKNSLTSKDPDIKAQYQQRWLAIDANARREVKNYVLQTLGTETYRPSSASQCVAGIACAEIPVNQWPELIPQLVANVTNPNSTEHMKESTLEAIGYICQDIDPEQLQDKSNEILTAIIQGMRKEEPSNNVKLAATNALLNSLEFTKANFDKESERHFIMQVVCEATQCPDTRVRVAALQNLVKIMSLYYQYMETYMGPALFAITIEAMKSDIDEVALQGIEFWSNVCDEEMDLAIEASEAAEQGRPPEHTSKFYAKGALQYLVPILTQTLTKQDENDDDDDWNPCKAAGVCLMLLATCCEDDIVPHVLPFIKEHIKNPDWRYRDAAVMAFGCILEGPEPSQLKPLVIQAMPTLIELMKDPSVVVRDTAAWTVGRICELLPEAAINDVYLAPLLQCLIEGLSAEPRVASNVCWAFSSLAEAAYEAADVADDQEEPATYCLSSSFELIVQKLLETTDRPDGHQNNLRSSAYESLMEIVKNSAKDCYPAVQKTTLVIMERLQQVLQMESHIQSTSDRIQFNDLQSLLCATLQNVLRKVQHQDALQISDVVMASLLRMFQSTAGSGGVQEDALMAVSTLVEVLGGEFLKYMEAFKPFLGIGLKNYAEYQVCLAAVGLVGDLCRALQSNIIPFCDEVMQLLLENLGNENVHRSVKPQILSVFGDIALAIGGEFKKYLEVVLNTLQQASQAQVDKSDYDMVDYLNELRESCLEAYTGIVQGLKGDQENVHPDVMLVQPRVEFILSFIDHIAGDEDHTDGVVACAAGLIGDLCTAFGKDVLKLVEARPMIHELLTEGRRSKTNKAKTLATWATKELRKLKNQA
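FRET biosensor Rango (snurportin 1 IBB between N-terminal EYFP and C-terminal Cerulean), 50 nM in PBS/1 mM DTT/0.02% Tween-20/0.1% BSA, preincubated 5 min RT with compound; 0.125 microM importin beta added, 45 min RT, CFP/YFP FRET ratio read.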
miR-21 FLuc: raises the signal of a miR-21 reporter | Potency, µM (top dose mostly 38.3 µM), without a hit: at the highest dose reporter change, positive = more light | AID 2288 | 340,000 tested, under 10 active | HeLa miR-21 FLuc reporter, luciferase, 48 h; active = well fitted rising curve with a large enough effect; inconclusive = small, poorly fitted or top-dose-only effect; inactive = no such curve, though single readings can be large or run the other way;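 further: % of control where 0% means no effect; miR-21 action dims this reporter so a rising signal means less miR-21 action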
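Luminescence from a firefly luciferase reporter carrying a miR-21 binding site downstream, stably expressed under a CMV promoter in HeLa cells that make miR-21 endogenously, reports miRNA modulation after 48 h compound exposure up to approximately 40uM final.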
Rango release inh: inhibition of RanGTP-driven Rango-importin beta dissociation. O95149+P62826. Biochemical FRET Rango-importin beta, RanGTP-induced dissociation. Potency, µM (titrated, usually from 46.1 µM), without a hit: at the top dose activity change, negative = inhibition. hit rate 0.071% among 340,000; active means falling FRET ratio curve, often poorly fitted, with flat reads before Ran was added; inconclusive means other falling curves, or compound fluorescence or quenching; inactive means flat or rising ratio curve;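 further: potency means the concentration at half of the fitted maximal effect; % of control where 0% means no effect; nearly all actives have a fitted effect of over 45% in size; -100% = wells without RanGTP and RCC1; the record marks most hits as doubtful in a second field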
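Two FRET readings bracket the reaction: one 5 min after compound meets Rango–importin beta, another 45 min after RanGTP-RCC1 (0.6 uM Ran, 0.2 uM RCC1, 2 mM GTP) is added. Only the second defines inhibition.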
* = called active by the depositor; ? = inconclusive; · = not tested or not shown. The list is partial. The share of hits here may be higher or lower than overall.

mol,Rango release inh,Rango-impB inh,GLA inh pH 4.5,miR-21 FLuc
CCOC(=O)C1(Cc2ccccc2)CCN(Cc2ccc(C3CCCCO3)s2)CC1 (centres undefined),14.4%,-0.6%,-5.9,0.5%
COc1ccc2c(c1)CCCC2NS(=O)(=O)OCC(Cl)(Cl)Cl (centres undefined),1.3%,-1.3%,·,0.0%
CCCC1(c2ccccc2)NC(=O)N(CC(=O)N2CC(=O)Nc3ccccc32)C1=O (centres undefined),9.4%,0.8%,·,·
O=C(CSc1nc(=O)n2ccccc2n1)NCc1ccccc1Cl,-2.9%,-1.4%,·,·
Cc1ccn2c(=O)c(NC(=O)COc3ccccc3)c(C)nc2c1,9.8%,4.8%,·,·
Cc1ccc(C(=O)Nc2ncc(Cc3ccc(SC(F)F)cc3)s2)cc1,3.3%,-0.6%,3.0,6.4%
CCn1c(SCC(=O)NCc2ccc(F)cc2)nc2c(c1=O)SC(C)C2 (centres undefined),-10.1%,-3.3%,2.1,-11.3%
CCN1C(=O)CC(C(=O)O)SC1=Nc1ccc(OC)cc1 (centres undefined),8.7%,0.8%,-4.3,0.0%
CCNc1nc(NCC)nc(N(C#N)C(C)C)n1,0.9%,-1.6%,2.7,0.2%
CCOC(=O)/C(=N\Nc1cc(Cl)ccc1Cl)N1CCOCC1,-12.9%,1.5%,-1.3,-0.5%
COCCn1c(=NC(=O)CSCC(=O)NC2CCCCC2)sc2cc(OC)ccc21,-9.2%,-3.7%,-3.0,-6.8%
Cc1ccc(NC(=O)/C=C\C(=O)NCC(=O)O)cc1C,0.0%,-2.4%,-0.7,-1.1%
Cc1ccc(CCNC(=O)CN(C)S(=O)(=O)c2ccc3c(c2)c(=O)n(C)c(=O)n3C)cc1,-9.2%,0.3%,8.2,-0.2%
CCc1cccc(C)c1NC(=O)CN(C)Cc1cccc(F)c1,-3.1%,-1.3%,-3.6,-1.0%
CCOC(=O)c1c(C)n(C(=O)c2ccco2)c(=O)n1C(=O)c1ccco1,?,-1.8%,9.2,-8.0%
CNc1ccccc1C(C)(C)c1cc(-c2ccco2)n[nH]1,-11.6%,-5.2%,5.0,7.2%
Cc1ccc(C(=O)Nc2ccc(F)cc2)cc1NC1=NC2CS(=O)(=O)CC2S1 (centres undefined),-1.4%,-1.5%,·,-3.7%
O=C(CN1C(=O)CSc2ncccc21)N1CCOCC1,15.7%,3.3%,7.3,-7.6%
COc1cc(CNn2c(C)n[nH]c2=S)cc(Cl)c1OCC(=O)NC(C)(C)C,-4.0%,3.3%,·,-10.9%
CCC(=O)NC(Nc1cccc(C)n1)(C(F)(F)F)C(F)(F)F,6.5%,1.2%,8.8,-1.6%
Cc1nn(CC(=O)N(C)C2CCS(=O)(=O)C2)c(C)c1[N+](=O)[O-] (centres undefined),-11.4%,0.0%,·,·
COc1cc(/C=N/n2c(SC)nnc(C(C)(C)C)c2=O)ccc1O,-0.6%,0.1%,-6.7,-1.6%
CCCNS(=O)(=O)c1ccc(OCC(=O)OC)cc1,3.8%,-1.0%,5.2,-1.1%
O=C(NC(Nc1cc(C(F)(F)F)ccc1Cl)C(=O)c1ccccc1)c1ccccc1 (centres undefined),-1.1%,0.2%,-10.5,4.2%
COc1ccc(C(=S)N2CCOCC2)cc1OC(=O)c1cccc([N+](=O)[O-])c1,-3.7%,-4.6%,5.4,-13.4%
CC(NC(=O)C1CCCCC1)C(=O)NC1=NCCS1 (centres undefined),-2.0%,-1.1%,4.5,-2.0%
CN(Cc1ccccc1)C(=O)C1CCN(S(=O)(=O)c2cccc3nsnc23)CC1,23.9%,5.4%,·,-1.2%
N#C/C(=C(/O)COc1cccc2ccccc12)c1nc2ccccc2[nH]1,-6.5%,0.1%,3.1,-10.1%
Cc1ccc(CNC(=O)CCc2c(C)nc3ncnn3c2C)cc1,-0.8%,-2.4%,1.6,2.7%
Cc1cccc(OCC(=O)Nc2cc(S(=O)(=O)N3CCOCC3)ccc2N2CCCC2)c1C,12.0%,4.3%,·,·
CC(C)(C)OC(=O)C(C(=O)OC(C)(C)C)c1ccc(Cl)nn1,-14.0%,-0.6%,1.3,-4.4%
Cc1nc(C(=O)N/N=C/c2[nH]ncc2Br)cs1,9.8%,0.8%,3.6,-17.4%
CCOC(=O)c1cnc(-n2nc(C)cc2C)nc1NC(C)c1ccccc1 (centres undefined),1.4%,-2.0%,-17.9,-10.0%
CCN(CC)S(=O)(=O)c1cccc(C(=O)N/N=C/c2ccc(N3CCOCC3)cc2)c1,-8.2%,?,6.3,2.4%
COc1ccccc1N1CCN(Cc2cc(=O)c(OCC(=O)NC3CCCC3)co2)CC1,13.0%,5.8%,·,·
COc1cc(NC(=O)COC(=O)c2ccc(S(=O)(=O)N3CC(C)CC(C)C3)cc2)c(C)cc1[N+](=O)[O-] (centres undefined),0.3%,5.3%,3.3,-7.9%
O=C(NC1CCCCC1)N1CCN(c2nc(-c3ccccc3)cs2)CC1,-14.8%,-2.7%,6.9,-0.3%
O=C(NC(=S)Nc1cc(C(F)(F)F)ccc1N1CCOCC1)c1ccco1,29.2%,1.0%,1.4,-7.4%
Cc1ccc(=O)n(C(C(=O)NCc2ccco2)C(=O)c2ccc(F)cc2)c1 (centres undefined),-15.3%,-3.8%,-2.7,0.2%
CNC(C)c1cc(OC)ccc1OC (centres undefined),-6.8%,-1.4%,10.2,-6.0%
O=c1c2ccccc2nc(SCc2ccc([N+](=O)[O-])cc2)n1-c1ccccc1,-8.1%,1.8%,-0.1,-12.4%
O=C(NC(c1ccccc1)c1ccccc1)N1CCOCC1,-3.1%,-0.6%,10.4,5.4%
CCOC(=O)N1CCc2c(sc(NC(=O)CN3CCOCC3)c2C(=O)Nc2ccccc2)C1,-17.2%,-2.0%,-0.3,10.1%
COc1cccc(NC(=O)Cn2cc(C(=O)C3CC3)c3ccccc32)c1,-16.1%,2.1%,·,·
COc1ccc(CCNC(=O)CCc2nc3sc4c(c3c(=O)[nH]2)CCCC4)cc1,-19.4%,?,·,-3.2%
COc1ccc(CNC2CCCc3ccccc32)c(OC)c1 (centres undefined),-8.4%,-4.3%,·,3.5%
Cc1cc(C)n(C2=NS(=O)(=O)c3ccccc32)n1,12.6%,0.2%,-0.5,-6.5%
CC(=O)OCC(=O)C1(O)CCC2C3CCC4=CC(=O)C=CC4(C)C3C(O)CC21C (centres undefined),3.7%,0.6%,-2.7,-42.9%
O=C(NCCN1CCOCC1)C(=O)c1c[nH]c2ccccc12,-18.4%,6.8%,·,-12.9%
Cc1ccccc1C(=O)NC(C(N)=O)P(=O)(OC(C)C)OC(C)C (centres undefined),-5.0%,-1.3%,-3.1,2.6%
Cc1ccc(Nc2nc(Cl)nc(NC(C)(C)C)n2)cc1,0.5%,1.5%,·,-59.3%
O=C1OCCC1Sc1nnc(-c2ccc(Cl)cc2Cl)o1 (centres undefined),23.2%,3.2%,-6.6,25.9%
COc1ccccc1C(=O)N1CCN(c2nc3cc(C)c(C)cc3cc2C#N)CC1,?,?,-3.7,14.2%
Cc1cc(C)cc(N2C(=O)CC(c3ccccc3)CC2=O)c1,1.5%,0.3%,·,·
CC1CCN(C(=O)CN2C(=O)C(=O)c3ccccc32)CC1,6.1%,7.9%,0.4,-2.8%
O=C(C1=C[C@@H](c2ccc3c(c2)OCO3)C[C@@H](OCc2ccc(CO)cc2)O1)N1CCOCC1,-10.4%,-0.4%,3.2,-1.4%
CC(C)C(c1nnnn1Cc1cccs1)N1CCN(C2CCCC2)CC1 (centres undefined),8.3%,-11.0%,-5.7,-3.7%
C/C(CC(=O)N(C(C)C)C(C)C)=N\NC(=O)COc1ccc(Br)cc1Br,-11.3%,-0.7%,11.3,-12.1%
COC(=O)CCN(C(=O)c1cc([N+](=O)[O-])cc([N+](=O)[O-])c1)c1ccccn1,1.6%,-3.7%,-7.8,4.6%
O=C(CCCOc1ccc(Cl)cc1)N1CCCCC1,5.6%,-2.6%,-3.0,-49.9%

(listing goes on)
mol,Rango release inh,Rango-impB inh,GLA inh pH 4.5,miR-21 FLuc
O=C(O)c1ccccc1/C=N/N1CCN(C2c3ccccc3-c3ccccc32)CC1,2.4%,1.0%,6.2,-5.5%
CC1(C)Cc2nc(N)c(=O)sc2C1,?,?,6.0,-0.4%
CCC1CCCCN1C(=O)COc1ccccc1NC(C)=O (centres undefined),-7.6%,0.1%,-1.0,0.8%
COc1ccccc1NS(=O)(=O)c1ccc(NC(=O)c2[nH]nc(OC)c2[N+](=O)[O-])cc1,-4.8%,-0.8%,·,-6.7%
Cc1ccc(C2(C)NC(=O)N(CC(=O)N3CC(=O)Nc4ccccc43)C2=O)cc1 (centres undefined),-6.8%,3.5%,·,·
C=CCN1CC(=O)N2C(C)c3[nH]c4ccccc4c3C[C@H]2C1=O (some centres undefined),5.0%,2.9%,·,1.1%
O=C(N/N=C/c1ccc(O)cc1O)NC12CC3CC(CC(C3)C1)C2,-0.5%,2.4%,·,-5.3%
O=[N+]([O-])c1ccc2nc(NS(=O)(=O)c3ccccc3[N+](=O)[O-])sc2c1,-0.1%,2.8%,·,-23.6%
O=C(c1cccc2ccccc12)N1CCN(c2ccc([N+](=O)[O-])c(N3CCOCC3)c2)CC1,1.8%,0.2%,-2.3,0.2%
COc1cccc(N2[C@@H](CC(=O)O)c3ccc(/C=C/C(=O)O)cc3S2(=O)=O)c1,0.2%,?,·,·
O=C1CC(NC(=O)C(F)(F)F)c2cc3c(cc21)OCO3 (centres undefined),1.0%,-3.6%,-6.7,3.2%
CC(=O)Nc1ccc(/C=C/c2ccc3c([N+](=O)[O-])cccc3n2)cc1,-8.9%,0.6%,-22.6,-58.4%
CN(C)S(=O)(=O)c1ccc(NC(=O)CSc2nnnn2C)cc1,1.3%,-2.2%,-2.0,-5.1%
CCOC(=O)C1CCN(C(=O)C23CC4CC(CC(C4)C2)C3)CC1,-3.6%,8.5%,-1.5,-2.3%
COc1cccc(CN2CCNC(=O)C2CC(=O)N(C)CCc2ccccn2)c1OC (centres undefined),·,·,3.4,-0.9%
Cc1ccccc1Cn1cc(NC(=O)CCCn2nc([N+](=O)[O-])cc2C)cn1,20.5%,-0.3%,5.8,-0.5%
O=C(CCNc1n[nH]c(=O)[nH]c1=O)N1CCCCC1,17.8%,4.5%,2.6,-3.6%
Cc1ccc(Cn2nc(C)c(NC(=O)c3noc4c3CCCCC4)c2C)cc1,13.9%,-1.4%,-3.9,28.5%
O=C(CCS(=O)(=O)c1ccccc1)Nc1ccc2c(c1)OCO2,-19.1%,4.9%,-1.1,-38.9%
CC(C)C(C(=O)NC(C)(C)C)N1C(=O)c2ccccc2C1=O (centres undefined),-6.2%,2.6%,1.2,-0.8%
COc1ccccc1C(=O)OCc1c(F)cccc1Cl,0.5%,0.9%,1.2,-15.6%
C=C(c1ccccc1)c1ccc(N(C)C)cc1,-9.8%,3.2%,·,-20.8%
O=C(Nc1ccc2c(c1)CCC2)C1CCCN(c2ncccn2)C1 (centres undefined),12.9%,0.3%,-0.3,-44.4%
CCCc1nc2oc3c(=O)[nH]cnc3c2c2c1CCCC2,6.1%,-4.5%,-2.4,-6.2%
O=C(O)C1C2CCC(O2)C1C(=O)Nc1ccc(OC(F)F)cc1 (centres undefined),0.2%,0.1%,·,-20.1%
CC(NC(=O)c1cc(-c2cccs2)on1)c1ccccc1 (centres undefined),-0.2%,-4.1%,-4.6,-14.2%
Cc1cc(-n2cnnn2)cc(C)c1S(=O)(=O)N(C)c1ccccc1,27.6%,0.4%,·,-5.0%
Cc1ccc(CC2C(=O)N(CC(=O)O)C(=O)C2C)cc1 (centres undefined),-6.9%,-0.4%,1.4,-6.4%
COC(=O)Cn1cnc2scc(-c3ccc(C)cc3)c2c1=O,-17.9%,1.6%,·,3.0%
CCN(CC)Cc1cc(C(C)(C)C)cc(N2CCOCC2)c1O,17.5%,0.1%,·,·
